GLA inh pH 4.5 – alpha-galactosidase A (human) inhibition, pH 4.5 | P06280 | purified enzyme, 4-MU-alpha-Gal fluorescence, pH 4.5 | activity change, negative = inhibition, % at 105 µM | 230,000 tested, under 10 active | AID 1467; inconclusive = small, poorly fitted or top-dose-only inhibition, or a rising curve; inactive = flat fitted curve, though single readings scatter; no compound was filed as active;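 further: 0% = full activity with enzyme and -100% = basal without enzyme; dose as in the result columns while the protocol names 77 µM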
miR-21 FLuc – miR-21 reporter, rising signal | HeLa miR-21 FLuc reporter, luciferase, 48 h | Potency, µM (series often up to 38.3 µM), inactives show at the highest dose reporter change, positive = more light | 340,000 tested, under 10 active | AID 2288; active = well fitted rising curve with a large enough effect; inconclusive = small, poorly fitted or top-dose-only effect; inactive = no such curve, though single readings can be large or run the other way;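 further: % of control where 0% means no effect; miR-21 action dims this reporter so a rising signal means less miR-21 action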
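HeLa miR-21-FLuc reporter line, endogenous miR-21; 2000 cells/well in DMEM/10% FBS; compound titration up to ~40uM final, 48 h, 37 degree Celsius; luciferase detection reagent, 15 min lysis, CCD luminescence.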
Rango-impB inh – inhibitors of Rango-importin beta complex formation; 340,000 compounds, 0.031% hits; AID 540263; Q14974; Rango CFP/YFP FRET sensor + importin beta, 45 min; Potency, µM (titrated, usually from 92.2 µM), for inactives: top-dose inhibition of complex formation; active = rising FRET ratio curve, often small or poorly fitted; inconclusive = mostly compound fluorescence or quenching in the first reads; inactive = flat curves in all reads;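 further: potency means the concentration at half of the fitted maximal effect; 0% = DMSO wells and 100% = buffer wells lacking importin beta; nearly all actives have a fitted effect of over 15% in size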
Target sequence (Q14974 whole entry, looked up): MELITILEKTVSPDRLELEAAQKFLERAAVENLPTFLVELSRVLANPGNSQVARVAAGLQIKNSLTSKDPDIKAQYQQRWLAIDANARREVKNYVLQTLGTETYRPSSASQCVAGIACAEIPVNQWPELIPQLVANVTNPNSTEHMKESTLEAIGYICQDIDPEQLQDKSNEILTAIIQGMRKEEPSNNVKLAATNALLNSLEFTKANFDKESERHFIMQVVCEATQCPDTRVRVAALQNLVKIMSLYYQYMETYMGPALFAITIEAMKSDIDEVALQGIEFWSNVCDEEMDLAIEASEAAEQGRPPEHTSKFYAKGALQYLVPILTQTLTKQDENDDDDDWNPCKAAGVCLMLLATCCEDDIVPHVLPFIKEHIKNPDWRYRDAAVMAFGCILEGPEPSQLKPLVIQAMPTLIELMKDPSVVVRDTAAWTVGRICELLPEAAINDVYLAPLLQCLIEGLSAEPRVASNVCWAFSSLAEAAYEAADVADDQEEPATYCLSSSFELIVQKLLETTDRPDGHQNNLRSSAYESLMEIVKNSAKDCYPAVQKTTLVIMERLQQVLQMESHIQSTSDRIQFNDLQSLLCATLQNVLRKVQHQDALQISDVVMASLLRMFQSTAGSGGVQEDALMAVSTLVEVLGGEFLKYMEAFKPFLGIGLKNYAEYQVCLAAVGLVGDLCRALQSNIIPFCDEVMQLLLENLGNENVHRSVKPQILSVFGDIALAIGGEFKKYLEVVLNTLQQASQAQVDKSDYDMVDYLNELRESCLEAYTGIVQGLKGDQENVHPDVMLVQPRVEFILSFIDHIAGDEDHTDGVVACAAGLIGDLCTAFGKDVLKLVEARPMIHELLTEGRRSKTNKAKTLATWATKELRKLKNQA
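FRET biosensor Rango (snurportin 1 IBB between N-terminal EYFP and C-terminal Cerulean), 50 nM in PBS/1 mM DTT/0.02% Tween-20/0.1% BSA, preincubated 5 min RT with compound; 0.125 microM importin beta added, 45 min RT, CFP/YFP FRET ratio read.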
Rango dissoc inh – inhibitors of RanGTP-induced Rango-importin beta complex dissociation. O95149+P62826. Biochemical FRET Rango-importin beta, RanGTP-induced dissociation. Potency, µM (titrated, usually from 46.1 µM), for the others: at the top dose activity change, negative = inhibition. 340,000 compounds, 0.071% hits; active means falling FRET ratio curve, often poorly fitted, with flat reads before Ran was added; inconclusive means other falling curves, or compound fluorescence or quenching; inactive means flat or rising ratio curve;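 further: potency means the concentration at half of the fitted maximal effect; % of control where 0% means no effect; nearly all actives have a fitted effect of over 45% in size; -100% = wells without RanGTP and RCC1; the record marks most hits as doubtful in a second field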
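Compounds preincubate 5 min with complex of recombinant Rango and importin beta in PBS with 1 mM DTT. Ran (0.6 uM) loaded with 2 mM GTP plus 0.2 uM RCC1 starts dissociation; FRET is recorded 45 min later.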
Active calls of the source: *; u = inconclusive; x = not tested or not shown; & = joins results of further samples. This is a subset; rates above refer to the full screens.

molecule	GLA inh pH 4.5	miR-21 FLuc	Rango-impB inh	Rango dissoc inh
O=C(CSCc1cnn(-c2ccccc2)c1-n1cccc1)NCc1cccnc1	4	-2%	0.5%	u
COc1cccc(C(=O)NNC(=S)NC2CCCCC2)c1	3	-57%	1.5%	18%
COc1ccc(CCSc2nnc(C3CCCCC3)n2N)cc1	4	-4%	0.6%	0%
OC(CCN1CCCCC1)c1ccc(-c2ccccc2)cc1 (centres undefined)	x	-40%	13%	-5%
CCn1c(CNc2ccc(F)cc2)nnc1SCC(=O)N1CCCc2ccccc21	-4	-1%	-2.3%	1%
CCOc1cc(N2CCOCC2)c(OCC)cc1NC(=O)c1cc(C)cc(C)c1	-15	-3%	0.2%	6%
Cc1cc(-c2ccccc2C(=O)Nc2ccccc2O)on1	-1	-7%	-0.2%	-3%
Cc1ccc(NC(=O)C2CCN(C(=O)NC3CCCCC3)CC2)c(C)c1	-5	1%	-0.3%	-2%
O=C(c1c(F)cccc1F)N1CCCC(c2nc(-c3ccc(Cl)cc3)no2)C1 (centres undefined)	x	14%	-1.8%	-8%
CC(=O)Nc1ccc(S(=O)(=O)Nc2cc(C)cn(Cc3ccc(C)cc3)c2=O)cc1	x	11%	u	-1%
CCC(=O)OCC(=O)N=c1sccn1Cc1ccc(C)cc1	x	-4%	1.5%	4%
O=C(Nc1ccc(-c2ccco2)cc1)C1CCCN(Cc2ccc(CO)o2)C1 (centres undefined)	x	0%	2.4%	2%
c1ccc(-c2nccc(-c3ccc4c(c3)OCO4)n2)cc1	3	-44%	-1.4%	-2%
CCn1nc2cc(C(=O)NCc3cc(C(F)(F)F)cc(C(F)(F)F)c3)ccc2c1OC	3	3%	-0.3%	24%
O=c1c2cc(NC(=S)N3CCC(N4CCCCC4)CC3)ccc2nc2n1CCCCC2	4	-1%	-1.8%	-1%
Cc1cc(C)cc(-n2nnc(C(=O)NCc3ccccc3)c2N)c1	9	-3%	0.3%	2%
CCOC(=O)c1ccoc1CSCC(=O)N1CCN(S(=O)(=O)c2ccc(C)cc2)CC1	-4	-2%	-2.3%	-4%
COC(=O)C1CCN(C(=O)COC(=O)CNC(=O)c2ccc(Cl)cc2Cl)CC1	x	x	0.3%	13%
O=Cc1cc2c(cc1[B-](F)(F)F)OCO2	x	x	0.1%	3%
CC1CCCN(S(=O)(=O)c2cc3c4c(c2)C(C)C(=O)N4CCC3)C1 (centres undefined)	x	-6%	0.3%	-7%
COc1ccc(NC(=O)[C@H](C)NC(=O)C2CCN(S(=O)(=O)c3ccc(OC)cc3)CC2)cc1	x	1%	1.0%	9%
CCc1nc2ccccc2nc1N1CCN(S(=O)(=O)c2ccccc2)CC1	-3	-10%	0.1%	-17%
CCC(=O)c1cc(F)c(N2CCN(C(=O)c3ccco3)CC2)cc1C	u	-25%	0.1%	12%
COc1ccc2nc(NC(=O)CS(=O)(=O)c3ccc(C)cc3)sc2c1	x	-5%	4.1%	14%
Cc1cccc(NC(=O)CCCc2ccccc2)c1C	x	-41%	-3.8%	-2%
Cc1ccc(C(=O)n2nc(-c3cccnc3)nc2N)cc1	-7	-3%	-1.1%	-4%
Nc1ccc(-n2cc(-c3ccccc3)[nH]c2=S)cc1	x	-27%	1.3%	3%
O=C(Cn1cnc2cc([N+](=O)[O-])ccc2c1=O)Nc1ccc(Br)cc1	-10	-2%	-3.8%	5%
Cc1ccccc1Cn1ccc(NC(=O)c2cc3ncc(Br)cn3n2)n1	0	-1%	3.0%	8%
CCn1nc(Cc2cccc3ccccc23)c(C#N)c1N	x	x	1.9%	15%

Rewritten as labelled records: entries from further up.
CCC(=O)c1cc(F)c(N2CCN(C(=O)c3ccco3)CC2)cc1C
  GLA inh pH 4.5 = u | miR-21 FLuc = -25% | Rango-impB inh = 0.1% | Rango dissoc inh = 12%

Cc1cccc(NC(=O)CCCc2ccccc2)c1C
  GLA inh pH 4.5 = x | miR-21 FLuc = -41% | Rango-impB inh = -3.8% | Rango dissoc inh = -2%

Further structures:
molecule	GLA inh pH 4.5	miR-21 FLuc	Rango-impB inh	Rango dissoc inh
CC1CN(C(=O)C2(C)CC2(Cl)Cl)CC(C)O1 (centres undefined)	5	-7%	3.3%	17%
CN1C(=O)C(CC(=O)O)S/C1=N\N=C\c1ccc(O)cc1O (centres undefined)	-8	-8%	-2.9%	13%
COc1ccc(C(=O)NCc2nnc(SCC(=O)N3CCc4ccccc43)o2)cc1OC	5	0%	-6.0%	-2%
CC(=O)Nc1ccc(NC(=O)C2CCCN2C(=O)Nc2ccccc2[N+](=O)[O-])cc1 (centres undefined)	-2	-6%	0.7%	2%
CC(C)(Cc1ccc(O)cc1)NC(=O)CC(=O)N=Nc1c(O)[nH]c2cc(Br)ccc12	-1	2%	-0.6%	20%
COc1ccc(CCNC(=O)c2cc(S(=O)(=O)N3CCCCC3)ccc2Cl)cc1	x	x	0.2%	-2%
Cc1ccc(C(=O)Nc2ccn(Cc3ccc(F)cc3)n2)o1	-3	-48%	-3.5%	-14%
CNCc1ccccc1Sc1cc(O)ccc1O	-8	-3%	1.2%	-9%
CCC(=O)Oc1ccc(C2N(C(=O)CC)CCN2S(=O)(=O)c2ccc(C)cc2)cc1OC (centres undefined)	1	-4%	-5.0%	-3%
COc1cc(NS(=O)(=O)c2ccc(N/C=C\C(=O)c3ccc(F)cc3)cc2)nc(OC)n1	-3	-44%	u	u
COc1ccc(N(C)S(=O)(=O)c2cccc(C(=O)Nc3cccc(C(=O)NC4CC4)c3)c2)cc1	x	x	-0.2%	-3%
Cn1c(=O)[nH]c(=O)c2c1nc(Br)n2CC(O)COCc1ccccc1 (centres undefined)	6	4%	-0.2%	-5%
COc1ccc(S(=O)(=O)N2CCC(C(=O)NCc3ccccn3)CC2)cc1OC	-4	-1%	0.5%	6%
CC(=O)NC(=S)c1c(N)n(Cc2ccccc2)c(=O)n(C)c1=O	-7	-4%	x	x
COc1ccc2nc(SCC(=O)NCC3CCCO3)c(C#N)cc2c1 (centres undefined)	x	-9%	-0.7%	10%
COCCCN(C(=O)c1ccc(-c2ccc(C(C)=O)cc2)o1)c1c(N)n(CC(C)C)c(=O)[nH]c1=O	x	x	-0.4%	3%
COc1cccc(C(=O)Nc2nc(-c3ccncc3)cs2)c1	10	-13%	0.3%	1%
O=C(NCc1ccco1)C1CCCN1C(=O)Nc1ccccc1[N+](=O)[O-] (centres undefined)	x	0%	-0.7%	5%
CCC(C)Nc1nc(Cl)nc(NCCOc2ccccc2)n1 (centres undefined)	-8	-40%	7.9%	0%
O=C(COc1ccc(C(=O)c2ccccc2)cc1)Nc1ncccc1O	x	x	-0.1%	-7%
CC1=C(C(=O)N2CCOCC2)C(c2c(C)cc(C)cc2C)NC(=S)N1 (centres undefined)	7	1%	-2.7%	22%
COc1ccccc1NC(=O)CSc1nnc(-c2ccc(C)cc2)o1	6	-29%	-2.7%	13%
COCCN(Cc1cc2cc(C)cc(C)c2nc1Cl)C(=O)Nc1ccccc1	-6	9%	-2.2%	2%
CN1C(=O)/C(=C/c2cccc(Cl)c2)Sc2ccc(C(=O)NCc3cccnc3)cc21	-11	20%	u	-11%
COc1ccc(N2CCN(S(=O)(=O)CCNC(=O)COc3ccc(Cl)cc3)CC2)cc1	x	-1%	3.2%	1%
CC(=O)Nc1ccc2nc(NC(=O)COc3ccc(C)cc3)sc2c1	-2	-16%	-0.3%	1%
O=C(Nc1cccc(-n2cnnn2)c1)c1cnccc1Cl	x	-3%	-3.9%	u
COc1ccccc1-c1ocnc1C(=O)N1CCN(C(=O)C(c2ccccc2)c2ccccc2)CC1	x	-6%	-0.6%	-16%
CCNC(=S)N1CCN(CC(=O)Nc2ccc(OC)cc2)CC1	-1	0%	u	18%
CCCC(C)c1nnc(NC(=O)CCS(=O)(=O)Cc2ccccc2)s1 (centres undefined)	x	0%	-1.4%	1%

The listing continues:
molecule	GLA inh pH 4.5	miR-21 FLuc	Rango-impB inh	Rango dissoc inh
Cc1cc(C)n(-c2nc3c(c(=O)n(C)c(=O)n3C)n2C)n1	0	0%	-0.3%	2%
COc1ccc(Cn2c(=O)[nH]c3cc(C(=O)N4CCN(c5ccccn5)CC4)ccc3c2=O)cc1	-4	-1%	-0.2%	-6%
O=C(O)C1C(c2ccccc2)C(C(=O)Oc2ccccc2)C1c1ccccc1 (centres undefined)	4	0%	1.4%	23%
Cc1oc(-c2ccccc2F)nc1CS(=O)(=O)CC(=O)N1CCc2ccccc21	6	-10%	-1.6%	1%
COc1ccc(C2=NOC(Cn3nc(C(=O)NCc4cccc(C(F)(F)F)c4)cc3-c3ccccc3)C2)cc1 (centres undefined)	x	x	-1.1%	14%
CC(C)CCNC(=O)c1ccc(-c2ccccc2)cc1	7	-65%	x	x
CCCCOC(=O)Nc1nnc(/C=C/c2ccc(OC)cc2)s1	25	-1%	2.1%	0%
Cc1ccc2c(c1)c1c(c(=O)n(-c3ccccc3C)c(=O)n1CC(=O)NCC1CCCO1)n2C (centres undefined)	x	2%&0%	-1.0%	-28%
COc1cccc(OC)c1C(=O)NC(=S)Nc1ccc(N2CCOCC2)c(Cl)c1	-3	0%	-1.1%	4%
Cn1c(=NC(=O)C2CC2)sc2cc(F)cc(F)c21	-13	-12%	-1.1%	1%
O=C(NCCc1ccccc1Cl)C1CCN(S(=O)(=O)c2cccs2)CC1	0	3%	2.1%	0%
CN(C(=O)c1ccoc1)c1ccc2ccccc2c1	x	20%	0.3%	10%
CNS(=O)(=O)c1cc(Nc2ncnc3sccc23)ccc1C	x	0%	u	-10%
Oc1c(I)cc(Cl)c2cccnc12	5&18&4	-1%	6.3%	1%
Cc1c(-c2nn(C)c(=O)c3ccccc23)oc2ccc(F)cc2c1=O	-4	-15%	5.8%	18%
O=S(=O)(O/N=C1\CCCc2ccccc21)c1ccc(Cl)cc1	-3	4%	9.7%	1%
CCOc1ccc2ccccc2c1C1NC(=S)N(C)C(C)=C1C(=O)OC (centres undefined)	0	0%	3.0%	4%
Cc1[nH]c2ccccc2c1C(=O)CSC(=S)N1CCN(C)CC1	6	-37%	-0.6%	4%
COc1ccc(C(=O)NN2CCOCC2)cc1	x	2%	4.7%	-4%
CC(C)(C)OC(=O)CNC(=O)c1[nH]cnc1C(=O)N[C@@H](Cc1ccccc1)C(=O)OC(C)(C)C	-13	29%	-0.5%	-17%
CN1CCc2c(sc3c2c(=O)n(-c2ccccc2)c2nnc(SCc4ccccc4)n32)C1	1	0%	-0.6%	-12%
COc1ccc(CNC(=O)CN(Cc2ccco2)C(=O)CNS(=O)(=O)c2ccccc2)cc1	x	0%	1.5%	-9%
Cc1cc(C)cc(N2C(=O)C3CC=CCC3C2=O)c1 (centres undefined)	0	-1%	1.2%	31%
COc1ccccc1CNC(=O)C1CCC(CNS(=O)(=O)c2cccs2)CC1 (centres undefined)	x	-5%	1.5%	14%
Cc1ccc(-n2nc3c(c2NC(=O)C(C)(C)C)CS(=O)(=O)C3)cc1	x	-1%	-2.0%	29%
CCn1cc(C(=O)NCc2cccc(C(F)(F)F)c2)c(=O)c2ccc(C)nc21	x	5%	-1.1%	5%

By substructure, the entries above containing a CF3 group.
molecule	GLA inh pH 4.5	miR-21 FLuc	Rango-impB inh	Rango dissoc inh
CCn1nc2cc(C(=O)NCc3cc(C(F)(F)F)cc(C(F)(F)F)c3)ccc2c1OC	3	3%	-0.3%	24%
COc1ccc(C2=NOC(Cn3nc(C(=O)NCc4cccc(C(F)(F)F)c4)cc3-c3ccccc3)C2)cc1 (centres undefined)	x	x	-1.1%	14%
CCn1cc(C(=O)NCc2cccc(C(F)(F)F)c2)c(=O)c2ccc(C)nc21	x	5%	-1.1%	5%

From PubChem BioAssay
